Mtb betalactam: beta-lactam sensitization of Mtb H37Rv | inhibition, % at 25 µM | M. tuberculosis H37Rv growth with meropenem, percent inhibition; hits of this screen are not shown here | actives 0.27% (n = 330,000);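 active = about 74% or more and at least 40 points above the plate without the antibiotic, then above 30% in a dose series; inconclusive = first-round hits that could not be retested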;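 note: growth measured after seven days incubation then overnight dye step; 0% = bacteria only wells and 100% = bacteria with antibiotic; twin plates without the antibiotic show which effects depend on it; some results filed as inactive read as strong as hits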
YopH inh: blocks Yersinia enterocolitica YopH tyrosine phosphatase. fluorescence Ex485/Em525. inhibition, %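 (about 10 µM by stock and volumes)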. actives 0.16% (n = 140,000);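 active = inhibition of 50% or more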;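 note: controls were vehicle for no effect and minimum signal wells for full effect; inactives centre near -20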
Mtb growth: M. tuberculosis H37Rv growth inhibitors, H37Rv strain (AID 1626); M. tuberculosis H37Rv growth inhibition; higher % means a stronger effect; inhibition, % at 10 µM; hits with a dose series show IC50 in µM; actives 0.95% (n = 220,000);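 active = confirmed in a dose series; inconclusive = inhibition above 80% but not taken into the dose series; inactive = below 80% or under 30% at every dose of the series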;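 note: bacteria incubated seven days before Alamar blue readout; 0% = bacteria only wells and 100% = bacteria with antibiotic wells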
Arbovirus anti: blocks arbovirus infection | arbovirus infection cell-based antiviral screen | inhibition, % at 10 µM | actives 0.37% (n = 200,000) | AID 1251;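 active = inhibition from about 30%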;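 note: bluetongue infection of BSR cells; cell survival read as ATP light after 72 h; 0% = infected wells without compound and 100% = uninfected wells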
RecA intein inh: blocks M. tuberculosis RecA intein splicing. P9WHJ3. cell-free RecA intein splicing, fluorescence. inhibition, %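 (about 9 µM by stock and volumes)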. actives 0.75% (n = 290,000). AID 2221; in the data active = inhibition above about 30%; inconclusive = no clear call, values can overlap the other calls;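 note: 0% = vehicle wells and 100% = reference inhibitor control wells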
Target sequence (P9WHJ3 whole entry, looked up): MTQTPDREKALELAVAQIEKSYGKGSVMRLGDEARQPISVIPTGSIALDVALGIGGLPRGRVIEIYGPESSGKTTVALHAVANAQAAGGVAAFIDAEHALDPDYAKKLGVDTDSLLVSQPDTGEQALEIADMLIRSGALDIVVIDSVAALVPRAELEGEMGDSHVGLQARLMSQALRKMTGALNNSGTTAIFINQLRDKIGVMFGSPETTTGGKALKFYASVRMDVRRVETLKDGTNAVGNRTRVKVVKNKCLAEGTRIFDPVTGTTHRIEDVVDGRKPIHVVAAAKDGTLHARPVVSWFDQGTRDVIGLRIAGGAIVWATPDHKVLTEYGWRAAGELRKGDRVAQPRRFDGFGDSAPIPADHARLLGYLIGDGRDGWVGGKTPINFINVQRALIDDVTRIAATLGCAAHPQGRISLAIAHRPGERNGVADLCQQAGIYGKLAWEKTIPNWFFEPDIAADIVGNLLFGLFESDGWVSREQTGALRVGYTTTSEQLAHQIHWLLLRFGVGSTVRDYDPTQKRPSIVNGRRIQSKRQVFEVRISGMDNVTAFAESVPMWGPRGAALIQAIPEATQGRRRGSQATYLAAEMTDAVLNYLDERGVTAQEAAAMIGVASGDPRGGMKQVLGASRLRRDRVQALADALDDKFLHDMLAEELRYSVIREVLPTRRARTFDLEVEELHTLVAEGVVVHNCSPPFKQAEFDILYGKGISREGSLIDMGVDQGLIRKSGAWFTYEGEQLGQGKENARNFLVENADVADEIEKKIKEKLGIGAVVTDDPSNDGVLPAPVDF
Arbovirus anti repeat: further read-out of Arbovirus anti, marked with its call; inhibition, %; measured here: 10K subset replicate screen; many hits read low in the repeat;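 first of two repeat runs on a subset; 0% = infected and 100% = uninfected wells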
Numbers without * were called inactive; ? = inconclusive; . = not tested or not shown; & = joins results of further samples. These rows are one share of the data, so the mix of outcomes need not match the whole.

SMILES | Mtb betalactam | YopH inh | Mtb growth | Arbovirus anti | RecA intein inh | others
NS(=O)(=O)c1ccc(-n2ncc3c(=O)[nH]c(SCC(=O)Nc4nccs4)nc32)cc1 | 2 | -25 | 38% | 4 | 0.0
Cn1c(=O)cc(SCC(=O)N2CCC3(CC2)OCCO3)c2ccccc21 | -5 | -44 | -3% | 6 | 3.9
CN(C)CCn1c(=O)n(Cc2ccco2)c(=O)c2c3c(sc21)CCCCC3 | -10 | -10 | -1% | -18 | 3.6
NNC(=O)c1sc2cc(C(F)(F)F)cnc2c1-c1cccs1 | -1 | . | 3% | 1 | .
O=C(CCCN1C(=O)/C(=C/c2cccc(Br)c2)SC1=S)Nc1cccnc1 | 2 | . | 29% | 17 | 17
c1cncc(CSc2ccc(-c3cccs3)nn2)c1 | -6 | . | -2% | 5 | 1.8
O=c1[nH]c(=S)[nH]c(O)c1N=Nc1ccc(OC(F)F)cc1 | 50 | . | 33% | 4 | 1.0
O=C(c1ccccc1F)N1CCOCC1 | -2 | . | -6% | 0 | -2.5
O=c1c2ccccc2nnn1CSc1nnc(-c2cccnc2)n1-c1ccccc1F | -21 | -54 | -5% | 6 | 0.7
CC(C)(C)c1ccc(C2/C(=C(\O)c3ccc4c(c3)OCCO4)C(=O)C(=O)N2CCCN2CCOCC2)cc1 (stereo not given) | -5 | . | . | . | -0.7
Cc1ccc(S(=O)(=O)N2CCCCC2)cc1NC(=O)c1ccc2ccccc2n1 | 8 | -2 | -11% | -6 | -3.1
COc1ccc(CNC(=O)CN2CCN(S(=O)(=O)c3cccs3)CC2)cc1OC | -12 | . | -3% | 11 | 0.5
O=c1cc(COn2nnc3ccc(C(F)(F)F)cc32)nc2sccn12 | -1 | -2 | -2% | 6 | -2.3
Cc1ccc(S(=O)(=O)N2CCOCC2)cc1NC(=O)COc1cccc(Oc2ccccc2)c1 | 3 | . | . | . | -0.8
CCN1CCN(C2=C(Cl)C(=O)N(Cc3ccccc3)C2=O)CC1 | -4 | -21 | -4% | -5 | .
O=C1C2CCCN2C(c2ccc(F)cc2)N1c1cccc(Cl)c1 (stereo not given) | -6 | 11 | -5% | 3 | 1.8 | Arbovirus anti repeat=6
Cc1ccccc1C(=O)NC(=S)Nc1ncccn1 | -10 | . | . | . | -2.4
COc1ccc(C(=O)N2CCN(C3CCC(c4ccccc4)CC3)CC2)cc1OC (stereo not given) | -3 | 16 | -1% | 13 | 2.8
Cc1ccc(C(N)=S)c(C)c1 | -11 | -25 | -5% | 3 | -0.2
Cc1ccc(SCc2c(C(=O)N/N=C/c3ccoc3)nnn2-c2nonc2N)cc1 | 5 | . | . | . | -1.6
CN1CCC(NC(=O)Cc2c(F)cccc2Cl)CC1 | 0 | -20 | -4% | 0 | 1.0
CSc1ccc(/C=C(\C#N)C(=O)NC2CCCCC2C)cc1 (stereo not given) | 39 | -28 | 5% | 1 | -0.7
Cc1occc1-c1nnc(SCC(=O)Nc2c(F)cccc2F)n1C | -10 | . | . | . | 0.4
CCOC(=O)N1CCN(CC(=O)c2c(C)[nH]c3ccccc23)CC1 | -13 | -22 | -3% | 3 | -2.4
COCCNC(=O)CSc1nc2cc3c(cc2c(=O)n1CCCC(=O)NCc1ccc(OC)cc1)OCO3 | 0 | . | 3% | 2 | 3.1

Arranged by molecular weight (smallest number first): some entries from above.
SMILES | Mtb betalactam | YopH inh | Mtb growth | Arbovirus anti | RecA intein inh | others
Cc1ccccc1C(=O)NC(=S)Nc1ncccn1 | -10 | . | . | . | -2.4
CSc1ccc(/C=C(\C#N)C(=O)NC2CCCCC2C)cc1 (stereo not given) | 39 | -28 | 5% | 1 | -0.7
CCN1CCN(C2=C(Cl)C(=O)N(Cc3ccccc3)C2=O)CC1 | -4 | -21 | -4% | -5 | .
CN(C)CCn1c(=O)n(Cc2ccco2)c(=O)c2c3c(sc21)CCCCC3 | -10 | -10 | -1% | -18 | 3.6
COc1ccc(C(=O)N2CCN(C3CCC(c4ccccc4)CC3)CC2)cc1OC (stereo not given) | -3 | 16 | -1% | 13 | 2.8
Cc1ccc(S(=O)(=O)N2CCCCC2)cc1NC(=O)c1ccc2ccccc2n1 | 8 | -2 | -11% | -6 | -3.1

(cont.)
SMILES | Mtb betalactam | YopH inh | Mtb growth | Arbovirus anti | RecA intein inh | others
Cc1cn(C2OC(CC(=O)Oc3ccccc3)C(O)C2O)c(=O)[nH]c1=O (stereo not given) | -6 | . | . | . | -0.7
COc1ccc(C(=O)N2N=C(c3ccc(NS(C)(=O)=O)cc3)CC2c2cccs2)cc1 (stereo not given) | -8 | . | . | . | 4.9
COc1ccc(CNC(=O)C(=O)NCC2CCCO2)cc1 (stereo not given) | 2 | 3 | 3% | 1 | -0.2
c1ccc(Oc2cccc3cccnc23)nc1 | 4 | . | 3% | . | 1.6
Nc1c(NCc2ccccc2)c(=O)[nH]c(=O)n1Cc1ccccc1 | -7 | -13 | 5% | 6 | 0.8
O=C(Oc1c(Br)cc(Br)c2cccnc12)N1CCCCC1 | 3 | . | 9% | 2 | 1.0
CCN(CC(=O)Nc1c(F)cccc1F)C(=O)c1ccc(COc2ccccc2)o1 | -3 | . | . | . | -0.5
COc1ccc(C)cc1N(CC(=O)Nc1cccc(N(C)S(C)(=O)=O)c1)S(C)(=O)=O | 11 | -17 | -8% | 4 | -3.0
CC(=O)NN1C(=O)c2ccccc2NC1c1cccc([N+](=O)[O-])c1 (stereo not given) | -7 | . | . | . | -2.8
CCOc1cc(/C=N/NS(=O)(=O)c2ccccc2)ccc1OS(=O)(=O)c1ccc(C)cc1 | 6 | -11 | -1% | -6 | 5.8
Cc1nc2scc(-c3ccc(Cl)cc3)c2c(=O)n1N | -3 | . | 3% | -8 | 1.9
O=C(Nc1ccccc1)C1CCCN1/C=C/C(=O)C(F)(F)F (stereo not given) | 1 | . | 7% | 18 | -1.3
O=C(COC(=O)/C=C/c1cc(Br)ccc1F)Nc1ccc2[nH]c(=O)[nH]c2c1 | 6 | . | . | . | -1.5
CCOC(=O)c1cn(Cc2c(C)c(C)c(C)c(C)c2C)nn1 | -4 | -25 | 0% | 3 | 4.5
CSCc1nc2scc(-c3ccccc3)c2c(=O)[nH]1 | . | . | 3% | -5 | -0.6
COc1cc([N+](=O)[O-])cc(/C=N/NC(=O)c2cncc(Br)c2)c1O | 11 | . | -4% | . | 11
NCCNC(=O)c1c(O)c2cccc3c2n(c1=O)CCC3 | -4 | . | . | . | 2.7
CCOc1cc(/C=N/NC(=O)c2ccncc2)cc(Cl)c1OS(C)(=O)=O | 99 | -18 | ? | 7 | -1.4
Cc1ccc(NC(=O)c2ccoc2C)cc1C | 4 | -18 | 0% | -8 | 1.2
Cc1[nH]n(C(N)=S)c(=O)c1N=Nc1ccc(Br)cc1 | 77 | . | . | . | 0.0
O=C(CCC(=O)c1cccs1)NCc1ccncc1 | -6 | . | -9% | 2 | -0.3
Cc1cccc(N2CCN(C(=O)Cc3c(C(=O)O)[nH]c4ccc(Cl)cc34)CC2)c1C | 5 | -123 | 3% | 9 | -6.5
Clc1ccc(-c2csc3ncnc(N4CCc5ccccc5C4)c23)cc1 | . | -4 | 17% | 11 | 2.2
S=C(NC1CCCCC1)N1CCC(c2cnc[nH]2)CC1 | -3 | . | -10% | . | -0.6
CC(C)n1nccc1N(Cc1ccc(Br)cc1)S(=O)(=O)c1ccccc1 | 5 | . | . | . | 17
SMILES | Mtb betalactam | YopH inh | Mtb growth | Arbovirus anti | RecA intein inh | others
COc1cc(N=c2ssnc2Cl)c(OC)cc1Cl | 2&47 | -10 | 2% | -16 | 0.1
C[C@H]1C=C(C(=O)NCc2nc3ccccc3[nH]2)O[C@@H](OCCCCO)C1 | -4 | . | -11% | . | -1.6
CCCCNc1nc(CC(C)=O)ns1 | -7 | -12 | 2% | -2 | 3.0
COc1ccc(S(=O)(=O)N2CCC(C(=O)N[C@H](C(=O)N3CCCC3)C(C)C)CC2)cc1 | -1 | . | . | . | 1.6
O=C(NCCO)c1ccc2nc(Cc3cccc(Cl)c3)oc2c1 | -1 | . | . | . | -3.3
Cc1nc(CCNC(=O)COc2ccccc2)cs1 | -1 | -27 | -7% | 4 | 0.3 | Arbovirus anti repeat=5
O=C(NCCC(=O)N1CCN(c2ccccc2O)CC1)c1ccc(Br)cc1 | 0 | . | . | . | -6.5
COc1ccc(NC(=S)N(Cc2cccnc2)Cc2ccco2)cc1 | 1 | . | 5% | 9 | 3.6
CCN1CCN(C(=O)c2cc3nc(-c4ccccc4)cc(C(F)(F)F)n3n2)CC1 | 3 | 8 | -6% | 2 | -0.9
O=C(N/N=C/c1ccc2c(c1)OCO2)c1cc(-c2ccccc2)nc2ccccc12 | 5 | -15 | 9% | -21 | 6.3
CN(CC(=O)Nc1ccc(Cl)cc1)C(=O)CCc1c[nH]c2ccccc12 | -3 | . | . | . | 2.7
N#C/C(=C\c1c[nH]c2ccccc12)C(=O)Nc1ncc(Cc2ccc(Cl)cc2Cl)s1 | 97 | 4 | 12µM* | -36 | -39
COc1cccc(-c2cc(C(=O)Nc3ccccc3)c3ccccc3n2)c1 | 0 | . | . | . | 0.0
CCCCn1c(SCC(=O)NCc2ccco2)nnc1-c1ccoc1C | -1 | -46 | -2% | 10 | 3.8
COC(=O)CSc1nnc(SCc2ccccc2)s1 | 7 | -13 | 14% | 3 | -3.2
COc1ccc(CCNC(=O)c2cccnc2)cc1OC | -3 | -40 | -2% | 0 | -2.4
CC(C)(C)C(=O)Nc1ccc(/C=C/C(=O)c2ccco2)cc1 | 44 | . | . | . | 1.6
CC(=O)n1cc(/C=N/NC(=O)c2ccccc2Cl)c2ccccc21 | 4 | . | . | . | 0.8
CCc1[nH]nc(C(=O)N2CCCC(C(=O)c3cccc(OC(C)C)c3)C2)c1C (stereo not given) | -2 | . | . | . | 1.1
COc1ccc(NC(=O)CS(=O)CC(=O)Nc2ccc(OC)c(OC)c2)cc1 (stereo not given) | 5 | -16 | -1% | 3 | 2.6
Cc1cnn(C(=O)c2cc(-c3ccccn3)nc3ccc(Cl)cc23)c1 | -9 | . | 4% | 2 | 3.6
COn1c(-c2ccccc2)nc2c1CCc1c-2no[n+]1[O-] | -1 | -17 | -5% | -9 | 5.1
O=C(NCC1CCCO1)C1CCN(C2CCN(Cc3ccco3)CC2)CC1 (stereo not given) | -9 | . | -7% | 1 | -1.5
O=[N+]([O-])c1ccc2c(c1)nc1n2CCCCC1 | -9 | . | 5% | 7 | 1.2
Cc1ccc(/C=C/C(=O)N2CCN(S(=O)(=O)/C=C/c3ccccc3)CC2)o1 | -2 | . | -5% | . | 1.7
SMILES | Mtb betalactam | YopH inh | Mtb growth | Arbovirus anti | RecA intein inh | others
O=C(CN1C(=O)NC2(CCCC2)C1=O)OCc1ccc(Cl)cc1Cl | -7 | . | . | . | -1.0
Cc1cccc(NC(=O)CCCNC(=O)c2ccc(Cl)cc2)n1 | -15 | . | . | . | 3.7
O=C(CSCc1ccc(Cl)cc1Cl)Nc1nccs1 | 2 | -13 | 13% | 0 | .
O=C(c1ccc(NS(=O)(=O)c2cccs2)cc1)N1CCN(c2ccccc2Cl)CC1 | -4 | . | 8% | 11 | 6.5
CC1(C)C[C@H](O)[C@@]23C[C@@H](OC2=O)[C@]2(C)C(=CCC4[C@@]5(C)CC[C@H](O)C(C)(C)C5CC[C@]42C)[C@@H]3C1 (stereo not given in full) | -4 | . | -15% | . | 0.1
O=C(Nc1ccc(Cl)cc1)c1csc(Cc2ccccc2)n1 | -2 | . | 7% | 13 | 19
CCCc1cc(=O)oc2c(CN3CCN(C)CC3)c(O)ccc12 | 1 | . | . | . | -34
Cc1cc(C(=O)N/N=C2/CC(C)CC(C)(C)C2)c(C)o1 (stereo not given) | 9 | . | 6% | -12 | 1.3
Cc1ccc(S(=O)(=O)NCCC(=O)Nc2ncccc2O)cc1C | 3 | . | . | . | -3.2
CCOc1ccc(NC(=S)Nc2cccc3cnccc23)cc1 | 95 | -19 | ? | 4 | 1.5
CCO[C@H]1OC(C(=O)NCc2ccccc2)=C[C@@H](C)[C@@H]1CCCO | -6 | . | -6% | 0 | 1.8
Cc1nn(-c2ccccc2Cl)c(Cl)c1/C=C(\C#N)C(N)=O | 3 | 4 | -2% | 1 | 5.4
CCOCCCn1c(=S)[nH]c2cc(C(=O)NCC(OC)OC)ccc2c1=O | -3 | . | 2% | 4 | -0.1
CCOc1ccc(CCNC(=O)Cc2ccc(NC(=O)C3=C(C)OCCS3)cc2)cc1 | -1 | . | . | . | -0.3
O=C(CNC(=O)c1ccccc1F)N/N=C/c1ccc2c(c1)OCO2 | -2 | . | . | . | -1.2
CCCc1ccc(C2=Nn3c(nnc3C(C)C)SC2)cc1 | 92 | . | . | . | 3.5
Cc1ccc(OCC(=O)NCCCNC(=O)c2cccnc2)cc1 | -3 | . | . | . | 1.3

Source: PubChem BioAssay (several laboratories)
